TRPML1 inh: human mucolipin-1 channel inhibition; TRPML1-inducible cells, Ca2+ dye fluorescence, FDSS; hits give low values; inhibition of EC80 agonist-evoked calcium signal; 390,000 compounds, 0.02% hits; Q9GZU1; activity change, negative = inhibition, % (test concentration not listed); AID 624415; in the data active means activity change below about -50%; inconclusive means about -30% to -50%; inactive means above about -30%;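 further: stimulus is agonist 54-4 at its EC80 concentration; on the % scale 0 is the no-effect control and ±100 the full control effect; compound concentration not given in the record; the text of the record puts the active cut at -80%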
Target sequence (Q9GZU1 whole entry, looked up): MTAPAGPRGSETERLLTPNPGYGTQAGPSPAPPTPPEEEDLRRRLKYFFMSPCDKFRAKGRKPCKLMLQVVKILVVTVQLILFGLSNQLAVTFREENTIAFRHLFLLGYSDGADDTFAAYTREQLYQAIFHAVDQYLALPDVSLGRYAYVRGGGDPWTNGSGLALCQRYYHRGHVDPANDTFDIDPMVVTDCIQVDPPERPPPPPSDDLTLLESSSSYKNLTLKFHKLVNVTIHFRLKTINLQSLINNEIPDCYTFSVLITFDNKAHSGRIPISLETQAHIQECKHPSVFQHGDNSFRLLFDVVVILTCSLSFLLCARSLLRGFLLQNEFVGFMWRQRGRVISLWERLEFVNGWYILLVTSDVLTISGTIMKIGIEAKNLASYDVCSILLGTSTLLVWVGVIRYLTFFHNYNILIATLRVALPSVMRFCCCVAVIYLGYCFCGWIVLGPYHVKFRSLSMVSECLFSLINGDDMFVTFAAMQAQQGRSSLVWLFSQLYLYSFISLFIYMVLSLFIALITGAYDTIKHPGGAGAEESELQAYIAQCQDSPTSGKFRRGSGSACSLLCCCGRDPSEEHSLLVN
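Tet-induced TRPML1-DL cells loaded with Ca8 no-wash calcium dye were read kinetically on FDSS. Compound addition was followed by EC80 agonist 54-4 (4 uM final); inhibition was read over 110 s.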
PINK1 expr mod: PINK1 expression modulation | PINK1 immunofluorescence, high-content cytometry, 24 h | Potency, µM (titrated, usually from 76.6 µM), for the others: at the top dose activation (PINK1 increase), most hits filed as activators | 410,000 compounds, 0.2% hits; active = well fitted activation curve with a large enough effect; inconclusive = small, poorly fitted or top-dose-only effect; inactive = flat fitted curve, though single readings scatter; cell line not stated here;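 further: potency means the concentration at half of the fitted maximal effect; % of control where 0% means no effect; nearly all actives have a fitted effect of over 65% in size; a mitochondrial uncoupler was the plate control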
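Measures PINK1 amount and localization on or inside mitochondria by immunofluorescence. Stable cells get compounds at 5 concentrations for 24 hours before fixation and staining; CCCP controls included.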
TRPML1 agonist: agonists of human TRPML1 channel | 410,000 compounds, 0.12% hits | activation, % (concentration not given with the values) | AID 624414 | TRPML1-expressing cells, Ca2+ dye fluorescence, FDSS; host cell line not named in the record; reference of the full effect not given here | Q9GZU1; in the data active = activation above about 50%; inconclusive = about 30% to 50%; inactive = below about 30%; further: 0% is about no effect; the text of the record puts the active cut at 80%
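Cells: TRPML1-DL, 1X Tet inducer, ~16 h at 37 degrees C/5% CO2. Dye: ABD Ca8 no-wash + quencher, 45-90 min RT. Read: 10 s baseline, compound add, 110 s agonist phase; 54-4 EC80 (4uM final), 110 s antagonist phase.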
Six1-Eya2 blk: inhibitors of human Six1/Eya2 interaction; Q15475+O00167; AlphaScreen GST-Six1/His-Eya2 binding, biochemical; hits give low values; control for the full effect not named in the record; activity change, % (test concentration not listed); 360,000 compounds, 0.56% hits; AID 651725; in the data active = activity change below about -65%; inconclusive = about -30% to -65%; inactive = above about -30%; further: on the % scale 0 is the no-effect control and ±100 the full control effect
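Six1/Eya2 binding was read as AlphaScreen signal after compounds were pinned into GST-Six1 plus His-tagged Eya2 (5X stock 250/500 nM) in pH 8.0 Tris/NaCl/TCEP buffer, beads added, then incubated 1 h, 37 C, dark.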
D2 agonist: human D2 receptor agonism in beta-arrestin assay; AID 624465; activation, % (no concentration beside the values); P14416; 360,000 compounds, 0.084% hits; DiscoveRx PathHunter D2 beta-arrestin, luminescence, 90 min; 100% = 57 uM dopamine signal; in the data active = activation above about 40%; inconclusive = about 15% to 40%; inactive = below about 15%; further: compound concentration not given in the record; the text of the record calls up to 30% inactive
Target sequence (P14416 whole entry, looked up): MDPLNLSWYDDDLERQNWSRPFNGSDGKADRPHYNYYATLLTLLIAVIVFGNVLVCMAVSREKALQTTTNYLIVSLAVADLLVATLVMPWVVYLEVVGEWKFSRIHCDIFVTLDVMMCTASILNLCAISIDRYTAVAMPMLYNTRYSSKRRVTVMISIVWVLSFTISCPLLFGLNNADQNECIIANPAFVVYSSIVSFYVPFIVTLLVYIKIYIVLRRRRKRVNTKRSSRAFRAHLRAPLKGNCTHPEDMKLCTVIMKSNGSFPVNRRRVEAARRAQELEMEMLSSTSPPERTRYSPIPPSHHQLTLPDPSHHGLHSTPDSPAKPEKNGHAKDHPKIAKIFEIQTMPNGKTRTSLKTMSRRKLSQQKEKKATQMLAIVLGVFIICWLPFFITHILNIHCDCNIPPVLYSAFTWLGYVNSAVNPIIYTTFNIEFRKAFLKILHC
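DiscoveRx PathHunter D2 beta-arrestin cells (2,100/well) attached overnight, then compound-stimulated 90 min at 37 C in HBSS/10 mM HEPES/0.1% Tween-20 buffer; beta-galactosidase complementation read by luminescence after 1 h at ambient temperature. Dopamine 57 uM final (EC100) as control.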
D2 PAM: human D2 receptor positive allosteric modulation; P14416; DiscoveRx D2 beta-arrestin cells, luminescence, 90 min; 100% = 57 uM dopamine signal; potentiation, % (no concentration beside the values); 360,000 compounds, 0.23% hits; AID 624464; active = potentiation of 50% or more; inconclusive = 30% to 50%; inactive = 30% or less;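 further: compound concentration not given in the record; tested on top of an EC20 dose of dopamine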
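PathHunter D2 cells, attached overnight at 37 deg C, received compound in DMSO plus dopamine at EC20 (50 nM final) for 90 min at 37 deg C. Beta-arrestin recruitment was read as luminescence after 1 h with detection reagent at ambient temperature.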
Starred values were filed as active, the others as inactive; ? = inconclusive; · = no result given; & = joins results of further samples; [ ] = remark or other dose.

SMILES	TRPML1 inh	PINK1 expr mod	TRPML1 agonist	Six1-Eya2 blk	D2 agonist	D2 PAM
O=C(CSc1nc2c(c(=O)[nH]1)CN(Cc1ccc3c(c1)OCO3)CC2)Nc1ccc(F)cc1	-8.3	0.3%	-1.0	·	·	·
COc1ccc(CC(=O)N2CCN(C(=O)Cc3ccc(OC)c(OC)c3)CC2)cc1OC	-3.2	0.5%	-0.4	1.7	-0.5	-4.3
COc1ccc(CC(=O)Nc2ccc3c(c2)CCC3)cc1OC	0.1	1.3%	-0.3	-6.3	1.2	-4.8
CC(C)Oc1ccc(CNC(=O)Nc2ccc3c(c2)N(C)C(=O)c2ccccc2S3)cc1	35.1	3.2%	3.2	·	·	·
COc1ccc(Cc2nnc(N/N=C/c3ccc(O)cc3O)[nH]c2=O)cc1OC	0.0	-1.7%	0.1	-87.6*	0.0	4.0
COc1ccc(N2CCN(C(=O)c3cccc(F)c3)CC2)c([N+](=O)[O-])c1	25.0	0.2%	-0.3	-8.5	-2.4	-3.9
Cc1nc2c(oc3ccccc32)c(=O)o1	-2.4	-4.2%	2.0	-2.8	0.4	-6.0
CC(=O)Nc1ccc(S(=O)(=O)N2CCC(NC(=O)C(Cc3cccn3C)NC(C)=O)CC2)cc1 (stereo unspecified)	-9.9	0.6%	1.2	-1.3	-3.4	6.2
CC(=O)Nc1ccc(S(=O)(=O)Nc2nnc(C)s2)cc1	1.3	2.4%	-0.3	20.1	-2.8	-9.2
Cc1cc2c(c(=O)n1CC1CCCO1)C(c1ccco1)C(C#N)=C(N)O2 (stereo unspecified)	-6.9	-3.2%[38.3 µM]	-0.7	0.8	1.4	0.5
Cc1nnnn1/C(=C\c1ccccc1)C(=O)OCC(=O)Nc1ccc(Cl)cc1F	15.3	-7.4%	0.2	-8.4	-1.5	-18.2
CC(Oc1ccccc1Cl)C(=O)Nc1ccc(S(=O)(=O)N2CCOCC2)cc1 (stereo unspecified)	-0.8	7.2%	0.3	-9.2	-0.6	-5.4
COc1ccc(/C=C2\CCCC(C(=O)C(F)(F)F)=C2O)cc1	26.0	-0.2%	0.2	2.4	-1.6	-10.8
COc1ccc(N2CCN(S(=O)(=O)c3ccc4c(c3)CC(C)N4C(C)=O)CC2)cc1 (stereo unspecified)	-10.5	0.5%	-0.2	·	·	·
C/C(=C\c1ccccc1)C(=O)Nc1nccs1	-16.6	0.6%	1.7	3.2	-4.4	-10.5
O=C(N/N=C1\C(=O)c2cccc3cccc1c23)c1ccc(O)cc1	-13.5	4.2%	-0.3	-9.1	-4.8	-15.7
O=C(COC(=O)c1ccccc1C(=O)N1CCN(c2ccc(F)cc2)CC1)NCc1ccccc1	-9.0	1.8%	-0.5	-1.4	-0.4	-1.0
COc1ccc(Cl)cc1NC(=O)CN(c1cc(C)cc(C)c1)S(=O)(=O)c1c(C)n[nH]c1C	9.4	18.4%	0.5	·	·	·
CCc1ccc(-c2nc(CN3CCC(C(=O)NCc4ccco4)CC3)c(C)o2)cc1	-7.1	-0.1%[38.3 µM]	-0.2	-2.2	-2.2	-13.5
Cc1cccc2cc3c(nc12)-c1ccccc1C3=O	-18.5	4.7%	3.2	22.8	-23.7	-6.4
Cn1cc(/C=C/c2cc[n+](C)cc2)c2cc(Cl)ccc21	4.1	?	19.2	7.9	-2.0	-12.1
Nc1nc(SCc2ccccc2)c2ncn(Cc3ccccc3)c2n1	-6.8	-1.2%	-0.1	-0.1	1.3	1.0
CCn1nc(C)c(CCN(C)C(=O)Nc2cc(C)cc(C)c2)c1C	-26.6	-1.2%	-1.2	·	·	·
Cn1c(=O)c2c(nc(NCCCO)n2Cc2cccc(Br)c2)n(C)c1=O	-3.8	2.9%	-0.7	-2.4	-0.4	-8.3
COc1ccc(C(CC(=O)NCc2ccccc2)C(C)C)cc1 (stereo unspecified)	3.5	-0.2%	0.3	1.6	-1.7	-5.3
CC(=O)Nc1ccc(C(=O)NNC(=O)c2cc([N+](=O)[O-])cc([N+](=O)[O-])c2)cc1	2.0	0.9%	-0.7	-8.4	0.1	3.9
C=CCNC(=S)N1CC2(C)CN(C(=S)NCC=C)CC(C)(C1)C2=O	25.3	-0.5%	0.5	6.9	-5.8	4.2
Nn1c(SCc2nc3ccccc3[nH]2)nnc1C1CCCCC1	-5.9	0.2%	-1.0	-2.1	-3.8	-13.3
COc1cccc(CNC(=O)Cc2ccc(-c3ccccc3)cc2)c1	12.6	11.9%	2.4	-6.2	-6.2	-8.5
Cc1noc(C)c1NC(=O)N(C)C[C@H]1Oc2c(NC(=O)Nc3ccc4c(c3)OCO4)cccc2C(=O)N([C@H](C)CO)C[C@@H]1C	3.9	-1.4%	-0.2	4.7	3.0	-11.4
Cc1ccc([C@@H]2C[C@H]3CN(Cc4cccc(Cl)c4)C(=O)[C@]34CCCN24)o1	23.7	0.5%	-0.3	-11.3	-4.9	-7.3
c1cncc(-c2nc(NCc3cccs3)c3ccccc3n2)c1	-16.9	0.1%&6.8%	3.3	-8.7	-1.0	-4.0
CN(C)C(=O)N1CCN(C(=O)c2ccco2)CC1	46.4	-0.3%	0.3	1.8	-0.1	-1.6
CCOc1ccc(NC(=O)c2ccco2)cc1	-0.4	?	0.3	1.7	0.2	1.5
Cc1ccc(/C=N/n2c(-c3ccco3)n[nH]c2=S)s1	14.2	-1.5%	4.8	-4.1	0.3	-26.5
CC(=O)NC(c1ccccc1)c1cccnc1 (stereo unspecified)	-13.7	-3.9%	1.5	-1.9	-1.9	10.4
COc1cccc(-c2nn(-c3ccccc3)cc2C(=O)NCC(=O)O)c1	-2.5	-1.2%	-0.6	4.3	-2.0	-6.9
Cc1nn2c(=O)cc(COC(=O)c3cccc(NC(=O)COc4ccccc4Cl)c3)nc2s1	2.1	-0.3%	2.2	·	·	·
COC(=O)c1ccccc1NC(=O)C(C)NS(=O)(=O)c1ccc(OC)cc1 (stereo unspecified)	11.4	-1.7%	-0.5	7.8	-0.5	3.9
O=C(CSc1oc(-c2ccco2)nc1S(=O)(=O)c1ccc(F)cc1)NCC1CCCO1 (stereo unspecified)	-6.8	-0.4%[38.3 µM]	1.1	0.9	-2.3	-15.1
COc1cccc(C(O)c2nc(-c3ccncc3)cs2)c1 (stereo unspecified)	·	-1.0%	-0.5	4.1	7.4	-10.8
Cc1occc1-c1nnc(SCC(=O)Nc2ccccc2)n1C(C)c1ccccc1 (stereo unspecified)	-15.6	-1.7%	0.7	-9.2	-1.9	-21.6
COC(=O)c1cc(C(=O)c2ccc(Cl)cc2)n2c(=O)/c(=C\N(C)C)sc12	-6.5	9.1%	0.0	4.2	0.7	-16.6
COc1ccc2cc(CCNC(=O)CCc3ccccc3)c(=O)[nH]c2c1	-1.9	-1.8%	3.3	-13.2	-0.8	-6.4
O=C(COC(=O)Cn1cnc2ccccc2c1=O)Nc1ccccc1OC(F)F	-0.6	3.0%	1.4	3.5	0.4	-5.0

Continued; the last 2 above are carried over.
SMILES	TRPML1 inh	PINK1 expr mod	TRPML1 agonist	Six1-Eya2 blk	D2 agonist	D2 PAM
COc1ccc2cc(CCNC(=O)CCc3ccccc3)c(=O)[nH]c2c1	-1.9	-1.8%	3.3	-13.2	-0.8	-6.4
O=C(COC(=O)Cn1cnc2ccccc2c1=O)Nc1ccccc1OC(F)F	-0.6	3.0%	1.4	3.5	0.4	-5.0
C/C(=N\NC(=O)c1ccc(Cl)cc1)c1ccc(Br)s1	16.7	-1.2%	0.1	2.3	-4.9	-31.4
O=C(NCC1CC1)c1onc(CSc2ccc(F)c(F)c2)c1C(=O)NCC1CC1	7.3	0.2%	1.2	8.5	-1.4	-6.7
CCCn1c(SCC(=O)Nc2cccc(C(=O)OC)c2)nnc1-c1cccnc1	-17.3	-1.2%	1.2	5.5	-3.0	-11.9
CCOC(=O)c1cc(S(=O)(=O)N2CCc3ccccc32)cn1C	1.5	0.4%	-0.4	0.5	-0.3	7.7
Cc1cccc2sc(NC(=O)c3ccc(OCC4CCCO4)cc3)nc12 (stereo unspecified)	17.0	3.0%	3.9	11.1	7.3	-6.8
Cc1cc(C(=O)Nc2ccc(F)cc2C)cs1	0.3	1.2%	-0.8	5.6	-0.8	5.5
CCN(CC)N=Nc1cccc(NC(C)=O)c1	-8.8	-2.4%	-0.2	6.7	-1.6	-15.2
CC1CCCCN1C(=O)/C=C/c1ccccc1[N+](=O)[O-] (stereo unspecified)	27.1	-1.6%	-0.2	-9.1	-5.2	-2.6
C=CCNC(=O)COC(=O)/C=C/c1cccs1	-5.2	6.4%	0.3	10.8	2.2	-2.3
Cc1ccc(S(=O)(=O)c2nc(/C=C/c3ccccc3)oc2N2CCC(C(N)=O)CC2)cc1	14.3	2.7%	0.3	14.4	-3.6	-10.8
CCCCCOc1ccc(C(=O)CCC(=O)Nc2ccc(NC(C)=O)cc2)cc1	24.9	-0.5%	0.9	0.5	-6.3	-2.3
COC(=O)c1ccc(Nc2nnc(-c3ccc(C)c(S(=O)(=O)N4CCN(C)CC4)c3)c3ccccc23)cc1	-15.8	1.4%	1.4	·	·	·
COc1cccc(-n2nnnc2SCC(=O)Nc2ccc(C(C)=O)cc2)c1	-4.5	-0.8%	1.2	-0.4	-1.5	-11.6
CCN(Cc1cc2cc(OC)ccc2[nH]c1=O)C(=O)c1ccncc1	7.1	0.8%[38.3 µM]	-0.1	1.6	-3.3	-8.9
Cc1ccc(-c2cnc(C3CC3)o2)cc1S(=O)(=O)Nc1ccc(F)cc1Cl	1.1	0.7%	18.2	·	·	·
COc1ccc(C(=O)O/N=C/c2ccc(S(=O)c3ccc(Cl)cc3)nc2)cc1 (stereo unspecified)	11.5	-0.1%	0.0	0.0	-3.5	-1.7
CCOC(=O)C1=C(CSc2nc(C)cc(C)c2C#N)OC(N)=C(C#N)C1c1ccccc1 (stereo unspecified)	55.0	2.4%	6.1	-12.8	-5.3	-12.3
CCCNC(=O)c1ccccc1NC(=O)c1ccc2c(=O)n3c(nc2c1)CCC3	3.4	-0.6%	0.0	0.0	-3.6	-18.3
COC(=O)c1ccc(N2CCN(C)CC2)c(NC(=O)COc2ccccc2)c1	-9.6	-0.2%	-0.1	4.2	-1.9	-0.4
O=C(Nc1ccccc1)OCc1ccccn1	-13.3	-2.6%	-0.5	6.4	-3.9	-9.9
Oc1ccc(CN2CCc3ccccc3C2)c2cccnc12	8.0	-0.6%	1.8	-94.0*	-10.0	-30.4
COc1ccc(-c2ccc(C(=O)Nc3ccc4c(c3)OCO4)c3occc23)c(C)c1	·	1.6%	0.2	-7.5	5.6	-9.6
Cc1csc(SCc2nnc(-c3ccccc3Br)o2)n1	-17.0	-3.4%[38.3 µM]	-0.3	-3.3	-1.7	-2.3
